Screening results from PubChem.
TSHR agonist: qHTS Assay for Agonists of the Thyroid Stimulating Hormone Receptor; Thyrotropin receptor (Homo sapiens), P16473; HEK293-CNG-TSHR cells (CNG channel as cAMP sensor), membrane potential dye, cAMP; Potency, µM (series often up to 57.1 µM), inactives show at the highest dose activation, hits mostly activators; actives 0.48% (n = 73,000); AID 926, 2007; active = well fitted activation curve of enough size with the parental cells flat; inconclusive = any curve in the parental cells; inactive = parental cells flat and receptor cells flat or falling; also: potency is read from the fitted curve at half-maximal effect; % of control where 0% means no effect; weak receptor curves with flat parental cells got no call and are not listed
Target sequence (P16473 whole entry, looked up): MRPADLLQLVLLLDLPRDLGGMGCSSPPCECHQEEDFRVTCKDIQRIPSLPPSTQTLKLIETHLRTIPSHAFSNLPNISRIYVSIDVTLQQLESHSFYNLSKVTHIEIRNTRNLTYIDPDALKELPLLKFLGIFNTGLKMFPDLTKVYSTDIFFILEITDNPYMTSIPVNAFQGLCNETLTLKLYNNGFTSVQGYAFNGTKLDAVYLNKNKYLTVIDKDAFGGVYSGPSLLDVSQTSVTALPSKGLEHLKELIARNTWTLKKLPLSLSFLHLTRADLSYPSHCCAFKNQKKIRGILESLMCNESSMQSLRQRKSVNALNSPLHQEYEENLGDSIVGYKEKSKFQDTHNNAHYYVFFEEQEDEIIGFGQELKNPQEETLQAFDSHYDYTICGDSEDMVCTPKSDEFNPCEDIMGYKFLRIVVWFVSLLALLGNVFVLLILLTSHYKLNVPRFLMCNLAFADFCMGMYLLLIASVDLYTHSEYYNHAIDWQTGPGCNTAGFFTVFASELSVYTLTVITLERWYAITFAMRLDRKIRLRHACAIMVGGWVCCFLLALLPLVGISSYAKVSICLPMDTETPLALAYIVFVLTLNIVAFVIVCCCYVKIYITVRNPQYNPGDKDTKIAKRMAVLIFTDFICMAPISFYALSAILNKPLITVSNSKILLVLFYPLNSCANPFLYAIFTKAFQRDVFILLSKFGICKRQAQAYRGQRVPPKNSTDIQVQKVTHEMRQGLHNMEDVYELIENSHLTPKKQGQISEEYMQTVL
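HEK 293 cells stably expressing TSHR and a modified CNG channel, with CNG-only parental cells as counterscreen, were preloaded 60 min at room temperature with membrane potential dye containing 100 uM RO 20-1724. Compound exposure was 30 min, and depolarization was read as fluorescence at 590 nm.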
Resorufin fluor: qHTS Assay for Spectroscopic Profiling in Resorufin Spectral Region. max dye-equivalent concentration, M. Compound fluorescence, resorufin region 547/598 nm, buffer; active compounds read high. actives 0.04% (n = 59,000); active = above 10 nM dye equivalent; inconclusive = 1 to 10 nM; inactive = 1 nM or less; a few of its hits are not listed in these tables; also: highest value over a series up to 38 µM
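Compounds in 100 mM Tris buffer, pH 8.0, incubated 15 min at room temperature, then read with 547 nm excitation and 598 nm emission filters. Fluorescence was converted to dye-equivalent concentration using an on-plate six-point resorufin standard curve.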
AID923: qHTS Assay for Allosteric/Competitive Inhibitors of Caspase-1: Spectroscopic Profiling in AFC Spectral Region | compound fluorescence, AFC spectral region (405/520 nm); almost no hit is shown here | Potency, µM (series often up to 57.5 µM), for the others: top-dose fluorescence increase, usual class: activators | actives 1.1% (n = 75,000); active = well fitted activation curve with a large enough effect; inconclusive = small, poorly fitted or top-dose-only effect;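 also: potency is read from the fitted curve at half-maximal effect; 0% is about no effect; scaled to a free AFC standard on each plate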
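Compound autofluorescence profiled at 405 nm ex/520 nm em during kinetic caspase 1 run (50 nM enzyme, 5 uM Ac-WEHD-AFC, HEPES pH 7.5, 10 mM DTT). Titration up to 57 uM; baseline from regression intercept, normalized to AFC standard curve.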
A488 fluor: qHTS Assay for Spectroscopic Profiling in A488 Spectral Region | compound autofluorescence, A488 spectral region, dye equivalency; active compounds read high | max dye equivalency, M | actives 0.1% (n = 59,000) | AID 591, 2007; active = above 10 nM dye equivalent; inconclusive = 1 to 10 nM; inactive = 1 nM or less; about half of its hits are not listed in these tables;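 also: highest value over a series up to 38 µM; compound alone in buffer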
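Spectroscopic profiling in the A488 region: compounds in pH 8.0 Tris (100 mM), 15 min RT, CCD imaging with 480 nm excitation and 540 nm emission; responses normalized against A488 dye standards.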
A647 fluor: qHTS Assay for Spectroscopic Profiling in A647 Spectral Region | Compound fluorescence, A647 channel (570/671 nm), Tris buffer | max dye-equivalent concentration, M | 59,000 tested, under 10 active; active means above 1 µM dye equivalent; inconclusive means 0.1 to 1 µM; inactive means 0.1 µM or less;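 also: values scaled relative to a standard on each plate; highest value over a series up to 38 µM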
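Compound fluorescence was measured in 100 mM Tris buffer, pH 8.0, after 15 min at room temperature, using 570 nm excitation and 671 nm emission filters. Signal was normalized to a per-plate Alexa 647 standard curve and expressed as dye-equivalent concentration at each compound concentration.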
The depositor's hits bear a star; i = inactive; ? = inconclusive; . = no result given; & = joins results of further samples; [ ] = remark or other dose. Some of the compounds tested; rates above refer to the full screens.

SMILES	TSHR agonist	Resorufin fluor	AID923	A488 fluor	A647 fluor
CCOC(=O)Cc1csc(NC(=O)CSc2nnc(C(C)C)n2C)n1	3.1%	i	0.8%	i	1.22e-08
COc1cc(Nc2nc(SCC#N)nc3ccccc23)cc(OC)c1OC	?	i	0.3%	i	2.8e-09
CCCN1C(=O)C2(C(C(=O)c3ccc(C)o3)=C(O)C(=O)N2CCCN2CCOCC2)c2ccccc21 (configuration not stated)	0.3%	i	1.0%	i	1e-09
C=CCn1c(SCC(=O)c2cc(C)n(Cc3cccs3)c2C)nnc1-c1ccncc1	?	i	0.5%	i	1.35e-08
CCOC(=O)/C=C1\SCC(=O)N1CC(=O)NC1CCCCC1	2.4%	i	-1.1%	i	1e-09
CC1CCN(c2ccc(C(=O)O)cc2N)CC1	-2.6%	i	-0.4%	i	1.65e-08
CCC(=O)c1ccc(OCC(O)CN2C(=O)NC(C)(C)C2=O)cc1 (configuration not stated)	?	.	-0.3%	.	.
CCN(CC)c1ccc(C(=S)N2CCN(c3ccccc3)CC2)cc1	0.7%	i	0.0%	i	3.33e-08
Cc1ccc(N2CC(C(=O)NCc3ccc4c(c3)OCO4)CC2=O)cc1C (configuration not stated)	15.4%	i	-2.4%	i	1e-09
Cc1ccc(NS(=O)(=O)c2ccc(NC(=O)C3CCCO3)cc2)cc1 (configuration not stated)	?	i	1.3%	i	5.6e-09
CC(=O)Nc1nnc(SCC(=O)NCC2CCCO2)s1 (configuration not stated)	-3.5%	.	-5.0%	.	.
Cc1ccc(NCc2nnc(SCC(=O)N(Cc3ccccc3)C(C)(C)C)o2)c(C)c1	-0.8%	i	-0.4%	i	2e-09

Quoted from the listing.
AID923 result of Cc1ccc(NS(=O)(=O)c2ccc(NC(=O)C3CCCO3)cc2)cc1 (configuration not stated) : 1.3%
AID923 result of CC(=O)Nc1nnc(SCC(=O)NCC2CCCO2)s1 (configuration not stated) : -5.0%
A647 fluor result of CCN(CC)c1ccc(C(=S)N2CCN(c3ccccc3)CC2)cc1 : 3.33e-08
A647 fluor result of CCOC(=O)Cc1csc(NC(=O)CSc2nnc(C(C)C)n2C)n1 : 1.22e-08
A647 fluor result of CC1CCN(c2ccc(C(=O)O)cc2N)CC1 : 1.65e-08
AID923 result of COc1cc(Nc2nc(SCC#N)nc3ccccc23)cc(OC)c1OC : 0.3%

Compound profiles, as listed above. Order of screens: TSHR agonist, Resorufin fluor, AID923, A488 fluor, A647 fluor
CC1CCN(c2ccc(C(=O)O)cc2N)CC1 is listed with -2.6%, i, -0.4%, i, 1.65e-08
CCOC(=O)/C=C1\SCC(=O)N1CC(=O)NC1CCCCC1 is listed with 2.4%, i, -1.1%, i, 1e-09

Other results
SMILES	TSHR agonist	Resorufin fluor	AID923	A488 fluor	A647 fluor
Cc1ccccc1OCCCCCNCCO	8.8%	.	2.8%	.	.
O=C(NCc1ccco1)c1cc(-c2ccco2)on1	-4.7%	i	-1.2%	i	1e-09
Cc1nnc(SCc2cn3ccsc3n2)n(N)c1=O	2.0%	i	-0.8%	i	8.9e-09
COc1cc(C2NC(=O)NC(O)(C(F)(F)F)C2C(=O)c2ccc(Cl)cc2)ccc1O (configuration not stated)	?	i	-0.1%	i	1.96e-08
Cc1cc(=O)oc2ccc(OCC(=O)N3CCC(C)CC3)cc12	11.0%	i	-1.6%	i	4.7e-09
O=C(CN(Cc1ccccc1Cl)C(=O)Cn1nnc(-c2cccs2)n1)NCC1CCCO1 (configuration not stated)	6.31µM*	i	0.1%	i	2.3e-09
C/C(=C\c1ccc(C(=O)O)cc1)c1ccc2c(c1)C(C)(C)CCC2(C)C	1.7%&2.4%	i	-2.5%	i	1.38e-08
CC(C)C(c1nnnn1C1CCCC1)N(C)C1CCCCC1 (configuration not stated)	?	i	-0.2%	i	1e-09
Cc1cccc(NC(=O)CC2CCC2)c1	-2.2%	i	-0.3%	i	2.79e-08
COc1ccc(NC(=O)N2CCCc3ccccc32)cc1	7.2%	.	-1.8%	.	.
CCOC(=O)CCN1C(=O)[C@H]2[C@H]3[C@H](O)[C@H](O)C/C(=N/OC[C@@H](O)COCc4ccco4)[C@H]3CC[C@@H]2C1=O	5.1%[11.4 µM]	.	0.0%[11.5 µM]	.	.
Cc1cccc(Nc2nc(N)nc(CN3CCC(C)CC3)n2)c1C	25.1%	i	3.5%	i	1e-09
CCNc1nc(NCC)n2c(SCc3nc4ccccc4c(=O)[nH]3)nnc2n1	12.6%	i	3.5%	i	3.46e-08
COC(=O)C1(C(O)C(=O)c2ccc(C)cc2C)CCCCC1 (configuration not stated)	10.8%	i	-1.3%	i	8.7e-09
Cc1cccc(-c2noc(CN(C(C)C)S(=O)(=O)c3ccc(F)cc3)n2)c1	?	i	-1.6%	i	1.9e-09
Clc1cccc(-c2nnc(SCc3nc4ccccc4[nH]3)n2Cc2ccco2)c1	?	i	4.2%	i	1.22e-08
Cc1c(C(=O)Nc2ccccc2Cl)oc2ccc(S(=O)(=O)N3CCC4(CC3)OCCO4)cc12	9.1%	i	-0.8%	i	4.48e-08
COc1ccc(C(=O)N2CCC3(CCCN(Cc4ccccc4)C3)CC2)cc1	21.3%	i	-1.8%	i	1.56e-08
O=C(Nc1ccc(Oc2ccc(S(=O)(=O)N3CCOCC3)cn2)cc1)c1ccco1	-2.6%	i	-0.9%	i	3.15e-08
CCOC(=O)c1cc(-c2ccc(C)cc2)n(CCC(=O)NCCN(C)C)c1C	0.0%	.	2.8%	.	.
COc1cccc(C2CC(=O)N3CN(c4ccccc4F)CSC3=C2C#N)c1 (configuration not stated)	-2.0%	.	-3.2%	.	.
OCCSc1ncnc2c1oc1ccccc12	16.8%	i	0.9%	i	1.62e-08
COC(=O)c1ccc(C2C(C(=O)OCC(C)C)=C(C)N=C3SCCC(=O)N32)cc1 (configuration not stated)	?	i	-0.2%	i	1e-09
CCOC(=O)c1[nH]c(CSc2nnnn2-c2ccccc2C)c(C(=O)OCC)c1C	?	i	4.1%	i	7.2e-09
COc1ccc(OC(=O)c2ccncc2)cc1	2.8%[11.4 µM]	i	-0.8%	i	2.64e-08
CN1C(=O)C2(c3ccccc31)N(C)CC(c1ccccn1)C21SC(=S)N(Cc2ccco2)C1=O (configuration not stated)	15.3%	i	-1.3%	i	9.2e-09
Cc1ccc(CCNC(=O)NC(C)(C)C)cc1	10.5%	i	-0.1%	i	5.1e-09
O=C(CSc1nnc(-c2ccncc2)n1Cc1ccco1)OC1CCCCC1	?	i	-0.9%	i	8e-09
NC(=O)C1(N2CCCCC2)CCN(c2ccc3nnc(-c4ccccc4)n3n2)CC1	17.4%	.	-0.7%	.	.
CCOC(=O)c1sc(=S)n(Cc2ccccc2)c1N	-11.3%	i	-1.7%	i	1e-09
Cc1oc(C(C)(C)C)cc1C(=O)Nc1ccc(C(=O)O)cc1	-14.4%	.	-1.7%	.	.
CCOC(=O)c1c(NC(=O)CSc2nnc(CNc3ccc(F)cc3)o2)sc(C(C)=O)c1C	?	i	0.0%	i	1e-09
CCc1ccc(CN2C(=O)CCC2(C)C(=O)NC2CCCC2)cc1 (configuration not stated)	.	i	-0.2%	i	3.17e-08
CCCCOC(=O)c1ccc(Nc2ncnc3nc[nH]c23)cc1	0.2%	.	-0.7%	.	.
CCc1nc2c(sc3nc4c(cc32)COC(C)(C)C4)c(=O)n1Cc1ccco1	31.6%	i	-0.3%	i	8e-09
COc1ccc(CNc2ccc3c(c2)nc(C)n3C)cc1	-4.0%	i	1.2%	i	2.6e-09
CCOC(=O)N1CCN(c2c(NCCN3CCN(Cc4ccccc4)CC3)c(=O)c2=O)CC1	-0.7%	.	-1.9%	.	.
Clc1ccc(-c2nnc3sc(-c4ccc(Br)o4)nn23)c(Cl)c1	9.5%	i	-1.9%	i	1.75e-08
CC(=O)N1CCN(S(=O)(=O)c2cccc(C(=O)Nc3nc4ccccc4[nH]3)c2)CC1	0.9%	i	0.1%	i	1e-09
CCOC(=O)CC(C#N)c1cn(C)c2ccccc12 (configuration not stated)	.	i	.	i	8.4e-09
COc1cc(O)c(C(=O)/C=C\c2ccc3c(c2)OCO3)c(OC)c1	-7.8%[11.4 µM]	.	-5.7%[11.5 µM]	.	.
COc1ccccc1C1/C(=C(/O)c2ccc(C)cc2)C(=O)C(=O)N1Cc1ccco1 (configuration not stated)	.	i	.	i	1.82e-08
COc1ccccc1NC(=O)C(C/C=C(\C)Cl)C(C)=O (configuration not stated)	?	.	2.5%	.	.
COc1ccc2c(c1)c1ncn(CCN3CCCC3)c(=O)c1n2C	2.7%[11.4 µM]	i	0.0%	i	2.6e-09
O=C(CN(Cc1cccs1)C(=O)CSc1nnc(COc2ccccc2)o1)NC1CCCC1	?	i	1.0%	i	1e-09
O=S(=O)(c1cccc(C(F)(F)F)c1)N1c2ccccc2-n2cccc2[C@H]1c1cccnc1	?	i	-1.7%[11.5 µM]	i	4.38e-08
Cc1onc(-c2ccccc2Cl)c1C(=O)N1CCN(C/C=C/c2ccccc2)CC1	15.6%	.	0.2%	.	.
COCCNc1nc(C)nc2c1nc(-c1ccccc1)n2CCCN1CCCCC1C (configuration not stated)	6.2%	.	0.0%	.	.
O=c1cc(C23CC4CC(CC(C4)C2)C3)[nH][nH]1	9.8%	i	0.5%	i	1e-09
CN(C)c1nccc(Nc2ccccc2)c1C#N	5.4%	i	-0.1%	i	1e-09
CC(C)CO/N=C1/C[C@@H](O)[C@@H](O)[C@@H]2[C@@H]3C(=O)N(Cc4ccccc4)C(=O)[C@H]3CC[C@@H]12	-3.5%[11.4 µM]	.	-1.9%[11.5 µM]	.	.
Cn1nnnc1SCC(=O)Nc1ccccc1N1CCOCC1	-2.7%	i	-1.2%	i	3.39e-08
COCc1cc(C)nc(N2CCc3ccccc32)c1C#N	27.4%	i	5.5%	i	1.86e-08
O=C1c2oc3ccccc3c(=O)c2C(c2cccnc2)N1CCCN1CCOCC1 (configuration not stated)	11.4%	i	2.9%	i	1e-09
CCCn1c(=O)c2ccccc2n2c(Sc3nnnn3-c3ccccc3)nnc12	11.9%	i	0.3%	i	3.23e-08
CS(=O)(=O)c1ccc([C@H](O)[C@H](CF)NC(=O)C(Cl)Cl)cc1	-6.9%[25.6 µM]	i	-0.8%[25.7 µM]	i	1.09e-08
COc1cc2[nH]c(=O)n(CCC(=O)N3CCc4ccccc4C3)c(=O)c2cc1OC	-2.1%	i	0.2%	i	4.3e-09
CC(=O)NC1=NC(=O)CS1	-3.3%[11.4 µM]	i	0.3%	i	1.67e-08
c1ccc(-n2ncc3c(NCCN4CCCCC4)ncnc32)cc1	5.2%	i	-1.9%	i	2.53e-08
CC(=O)Nc1cc2c(cc1C(C)=O)OCCO2	0.8%	i	1.7%	i	3.31e-08

The list continues.
SMILES	TSHR agonist	Resorufin fluor	AID923	A488 fluor	A647 fluor
COCCCNC(=O)C1CCN(S(=O)(=O)c2c(C)noc2/C=C\c2ccc(OC)cc2)CC1	20.3%	i	-1.4%	i	7.1e-09
O=C(Nc1cccc(-c2nnc(-c3ccccc3)o2)c1)c1ccco1	?	i	0.2%	i	4.3e-09
CC(=O)Nc1ccc(C)cc1NC(C)=O	2.9%	i	-2.7%	i	8.4e-09
O=C(Nc1ccon1)c1ccc2c(c1)OCO2	0.9%	i	1.2%	i	3.41e-08
COC(=O)c1ccccc1NC(=O)c1ccco1	10.6%	i	1.2%	i	5.7e-09
CCc1nnc(NC(=O)CSc2nc(C)c3c(c2C#N)CCCC3)s1	.	i	.	i	8.87e-08
C=CCn1c(Cc2cccs2)nnc1SCC(=O)Nc1cccc(OC)c1	13.8%	i	-3.8%	i	8.9e-09
CCOCCCNc1nc2c(c(=O)[nH]c(=O)n2C)n1CCCc1ccccc1	-1.7%	i	1.5%	i	5.12e-08
CC(c1nnc(SCC(=O)NC(=O)NCc2ccco2)n1-c1ccc(Cl)cc1)N(C)C (configuration not stated)	0.2%	i	0.7%	i	1e-09
